# High-throughput results as filed in PubChem BioAssay.
# MgrA DNA FP: S. aureus MgrA-DNA binding modulation; fluorescence polarization; inhibition, %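 (about 10 µg/mL by stock and volumes)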; 84,000 tested, 0.13% active;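 active means above 50% in either of two replicates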;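 further: 0% = protein plus DNA without compound and 100% = DNA alone without protein; higher means less MgrA bound to DNA so lower polarization; one replicate is shown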
# Sa helicase inh: blocks Staphylococcus aureus DNA helicase; purified S. aureus helicase, fluorescence unwinding assay; about half of the hits fall short of the stated cut; inhibition, %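 (tested at about 80 µM)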; 120,000 tested, 0.05% active;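 active means both duplicates at 50% or more, or one of them with a favoured structure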;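 further: 0% = mean of negative control wells and 100% = mean of positive control wells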
# Starred values were filed as active, the others as inactive; i = inactive; . = no result given; & = joins results of further samples. A portion of the library. The share of hits here may be higher or lower than overall.
SMILES,MgrA DNA FP,Sa helicase inh
Cc1ccc(NC(=O)N2CCCn3c(SCC(=O)c4ccccc4)nnc32)cc1,.,27
CSc1nc2ccc(NC(=O)/C=C/c3cccs3)cc2s1,.,-11
CC(C)C(NS(=O)(=O)c1ccc2c(c1)oc(=O)n2C)C(=O)N1CCN(c2ccc(Cl)cc2)CC1 (stereo unspecified),.,-1
CC(C)CCNC(=O)C1CCN(S(=O)(=O)c2ccc3nc4c(c(C(=O)O)c3c2)CCCCC4)CC1,.,6
O=C(Nc1ccc(S(=O)(=O)N2CCCC2)cc1)c1ccco1,.,16
COc1ccc(-c2ccc3c(N)c(C(=O)Nc4cccc(C(F)(F)F)c4)sc3n2)cc1OC,2.8,5
O=C(NCCc1nc2ccccc2[nH]1)c1ccccc1,-2.2,-12
O=C(O)c1ccccc1C(=O)NCc1ccc2c(c1)OCO2,.,-24
O=C1OC(c2ccccc2)OC(=O)C1=Cc1ccc(-c2cccc(Br)c2)o1 (stereo unspecified),32,14
C/C=C/C=N/Nc1nnc2c(n1)[nH]c1ccccc12,2.5,-5
CC1Cc2ccccc2N1C(=O)CSc1nnc(COc2ccccc2Cl)o1 (stereo unspecified),.,-19
COc1ccccc1-c1nnc(SC)n1-c1ccccc1,-0.6,.
CCCOc1ccc2c(c1)C(=O)c1cc(OCC(=O)O)ccc1-2,3.2,17
C=CCNC(C(=O)Nc1cccc(OC)c1)c1ccccc1 (stereo unspecified),.,-13
O=C(CCC(=O)c1cccs1)NCc1ccccc1,.,-11
CCOC(=O)CSC1=C(C#N)C(c2cccc(Cl)c2Cl)C2=C(CCCC2=O)N1 (stereo unspecified),.,8
CCCn1c(SCC(=O)c2ccc3c(c2)OCCO3)nnc1-c1ccco1,-0.7,9
O=C(C1CCCN(S(=O)(=O)c2cccc3nonc23)C1)N1CCN(c2ccc(F)cc2)CC1 (stereo unspecified),0.6,12
Cc1cc2nccc(-c3cccnc3)n2n1,.,-37
N[C@@H]1[C@@H](O)[C@H](O)[C@@H](CO)O[C@H]1O,4.9,.
NS(=O)(=O)c1ccc(CCN2C(=O)CCC2=O)cc1,.,-10
CNc1nc(Nc2ccc([N+](=O)[O-])cc2)nc(OCC(F)(F)C(F)F)n1,3.6,.
CC(C)(C)N1C(=O)NC(=O)/C(=C\c2ccco2)C1=O,10,18
N#Cc1ccc(/C=N/n2cnc3sc4c(c3c2=O)CCC4)cc1,.,-3
COc1cccc(C=Nc2cccc(NC(=O)c3ccc(F)cc3)c2)c1O,2.5,-15
Cc1cc(C(C)(C)C)cc(C(C)(C)C)c1NC(=O)/C=C/C(=O)O,-0.4,-23
Cc1cccc2c(C(=O)NC(C)(C)C)cc(-c3ccccc3)nc12,-2.2,9
CCS(=O)(=O)N1CCCC(C(=O)NCc2cccc(OC)c2)C1 (stereo unspecified),.,17
Nc1cc(=O)[nH]c(=O)n1-c1cccc(Cl)c1,-0.9,-23
N#Cc1ccc(-c2cccc(C(F)(F)F)c2)nc1Cl,-1.7,.

# 4 records drawn at random from the list so far:
SMILES,MgrA DNA FP,Sa helicase inh
O=C(Nc1ccc(S(=O)(=O)N2CCCC2)cc1)c1ccco1,.,16
O=C(NCCc1nc2ccccc2[nH]1)c1ccccc1,-2.2,-12
Cc1cccc2c(C(=O)NC(C)(C)C)cc(-c3ccccc3)nc12,-2.2,9
Cc1cc2nccc(-c3cccnc3)n2n1,.,-37

# (further entries)
SMILES,MgrA DNA FP,Sa helicase inh
Nc1c(Nc2cccc(C(=O)O)c2)c2ccccc2oc1=O,.,4
NS(=O)(=O)c1ccc(CNc2ccc3ccccc3n2)cc1,.,8
CCNC1CC(=O)N(c2ccc(C(=O)OCC)cc2)C1=O (stereo unspecified),3.2,-2
CCN1CCN(C(c2cccs2)C(C)NC(=O)c2ccco2)CC1 (stereo unspecified),.,-3
CSc1nc(C23CC4CC(CC(C4)C2)C3)ccc1C#N,0.9,4
c1cc2c(cc1C1CC1)OCCO2,.,18
Cc1ccc(/C=[N+](\[O-])c2ccccc2C)o1,.,-14&6
Cc1ccc(CN2CC(C(=O)N3CCCc4ccccc43)CC2=O)cc1 (stereo unspecified),.,-5
O=C(O)c1cc(S(=O)(=O)NNc2ccc(Cl)cc2)ccc1O,.,11
O=C(CCCn1c(=O)c2cccn2c2ccccc21)NC1CCCCC1,.,24
CC1CCCCC1NC(=O)CCCn1c(=O)[nH]c2ccsc2c1=O (stereo unspecified),-0.4,8
CCOC(=O)c1c(NC(=O)CS(=O)(=O)c2cn(CC)c3ccccc23)sc2c1CCCC2,0.5,5
CC1(C(=O)NC2CCCC2)CCC(=O)N1Cc1cccnc1 (stereo unspecified),.,-7
COC(=O)C1=C(O)CSC1=Nc1ccccc1,.,1
COc1cc(OC)nc(NC(C)=O)n1,.,17
Cc1cccc(N(C)S(=O)(=O)c2ccc3c(c2)C(C)(C)C(=O)N3C)c1,3.4,9
C=CCN(Cc1nc(-c2ccccc2)no1)C(=O)COc1ccccc1,4.1,5
COc1ccc(OCC#CCOc2ccccc2)cc1,3.6,2
O=C1CCC2(C(=O)NC34CC5CC(CC(C5)C3)C4)SCCN12 (stereo unspecified),.,-9
C=CCn1c(=O)/c(=C/c2ccc(-c3ccc(Br)cc3)o2)s/c1=C(/C#N)c1nnc2n1CCCCC2,.,i
O=C1CSC(=O)N1Cc1cc2c(cc1Cl)OCO2,-3.0,16
Cc1ccc(C=Nc2ccccc2C(N)=O)s1,1.2,11
O=S(=O)(NC1CCCCC1N1CCC(O)CC1)c1ccc(Cl)cc1 (stereo unspecified),.,-5
O=C(Nc1nnc(SCc2cccc(F)c2)s1)C1CCCCC1,.,-22
Cc1ccc(C)c(S(=O)(=O)N2CCCN(C)CC2)c1,.,-8
CC(C)C(NC(=O)/C=C/c1ccc(Br)o1)c1ccc2c(c1)OCCCO2 (stereo unspecified),.,-10
Cc1ccc(Nc2nnc(SC(C)C(N)=O)s2)cc1 (stereo unspecified),.,10
COc1cccc(NC(=S)N=Nc2c(O)n(C)c3ccc(S(=O)(=O)N4CCOCC4)cc23)c1,.,-5
O=C(O)CC1NC(=O)NC1=O (stereo unspecified),.,-3
O=C(C1c2ccccc2Oc2ccccc21)N1CCCCC1,-0.5,7
Cc1ccccc1CN1C(=O)C2(OCCCO2)c2ccccc21,2.3,-2
Cc1nc(N2CCN(C)CC2)sc1C(=O)N(C)C,.,-15
O=C(NCCCN1CCCC1=O)c1cccc(Oc2ccccc2)c1,3.8,2
O=C(Nc1ccc(Cl)cc1Cl)c1cc2nc3c(c(C(F)(F)F)n2n1)CCc1ccccc1-3,0.7,9
CCCCC/C=C\C/C=C\C/C=C\CC1OC1CCCC(=O)O (stereo unspecified),-0.3,.
O=C(COC(=O)C12CC3CC(CC(Br)(C3)C1)C2)NC1CC1,-0.3,8
CCSc1nnc2c(n1)OC(c1cc3c(cc1Cl)OCO3)Nc1ccccc1-2 (stereo unspecified),2.0,9
COCCNC(=O)c1nn2c(C(F)(F)F)cc(-c3ccccc3)nc2c1Br,-0.4,.
O=C(Nc1ccccn1)C1(c2ccccc2)CCCC1,1.7,0
O=C(NCCCN1CCN(c2ccccc2F)CC1)C1CCN(S(=O)(=O)c2cccc3cccnc23)CC1,.,-29
O=C(O)c1cc(C=Nc2ccc3c(c2)OCCOCCOCCO3)ccc1O,-3.8,6
CC(C)CN1C(=O)/C(=C\c2ccc(-c3ccc(S(N)(=O)=O)cc3)o2)SC1=S,.,-102
Cc1ccc(C)n1-c1ccc(C(=O)NCc2cccnc2)cc1,.,1
O=C(O)c1ccccc1C(=O)Nc1cc(C(F)(F)F)ccc1Cl,-4.2,.
CCOn1c(=O)c(-c2ccccc2)[n+]([O-])c2ccccc21,.,-46

# Some of the entries above, set out differently:
CCOC(=O)CSC1=C(C#N)C(c2cccc(Cl)c2Cl)C2=C(CCCC2=O)N1 (stereo unspecified)
  MgrA DNA FP: .; Sa helicase inh: 8

CCCn1c(SCC(=O)c2ccc3c(c2)OCCO3)nnc1-c1ccco1
  MgrA DNA FP: -0.7; Sa helicase inh: 9

O=C(C1CCCN(S(=O)(=O)c2cccc3nonc23)C1)N1CCN(c2ccc(F)cc2)CC1 (stereo unspecified)
  MgrA DNA FP: 0.6; Sa helicase inh: 12

# Next part:
SMILES,MgrA DNA FP,Sa helicase inh
c1ccc2c(c1)Oc1ccccc1C2N1CCOCC1,4.8,20
CN(C)C1(CNC(=O)c2cccc(NS(=O)(=O)c3ccc4c(c3)OCCO4)c2)CCCCC1,.,-4
COc1ccc(NC(=O)c2ccc3cccc(O)c3n2)cc1Cl,.,-21
COc1c(S(=O)(=O)Nc2cccnc2)ccc(Cl)c1Cl,.,-15
Cc1ccc(NC(=O)CCS(=O)(=O)c2ccc3c(c2)n(C)c(=O)c(=O)n3C)cc1,4.0,4
Cc1cc(C)nc(SCc2noc(-c3ccc(Cl)cc3)n2)n1,-2.5,4
O=C(O)CCC(=O)Nc1cccc(C(=O)O)c1,.,17
CN(C1CCCCC1)C(c1ccc(F)cc1)c1nnnn1C1CCCCC1 (stereo unspecified),0.7,-2
CCCN(CCC)CCn1cnc2c([nH]c3ccccc32)c1=O,2.5,13
COc1ccc(Cl)cc1N1Cc2cc(C)c(C)cc2C1,.,-26
CCOC(=O)Oc1ccc2c(c1)C(C)=CC(C)(C)N2C(=O)OCC,1.5,12
COc1ccc2c(=O)/c(=C/c3ccc4c(c3)OCO4)oc3cccc1c32,1.6,-21
CCOC(=O)Cc1csc(NC(=S)NC(=O)c2ccco2)n1,.,10
CC1CCCN(c2nc3nonc3nc2Nc2ccccc2F)C1 (stereo unspecified),-0.8,.
C=COc1ccc(N)cc1,-1.4,8
COc1ccc(OC)c(NC(=O)CS(=O)(=O)c2cccc3nsnc23)c1,-0.9,10
O=C(c1ccco1)N1CCC(C(=O)N2CCc3ccccc32)CC1,0.6,20
O=S(=O)(NCCc1csc2nc(-c3ccccc3)nn12)c1ccccc1,.,-17
Nn1c(Cc2ccccc2)nc2cc(Cl)ccc2c1=O,-3.8,7
O=c1cc(C(F)(F)F)[nH]c2cc(Cl)cc(Cl)c12,1.7,.
S=C(NCCN1CCOCC1)N1CCN(c2cccc(Cl)c2)CC1,.,-6
CCc1[nH]nc2c1C(c1cccc(OC(=O)N3CCOCC3)c1)C(C#N)=C(N)O2 (stereo unspecified),0.9,0
Cc1cc(=O)[nH]c(-c2cccs2)n1,-3.6,.
N=C1S/C(=C\c2ccco2)C(=O)N1c1ccc(Oc2ccccc2)cc1,12,0
COC(=O)c1ccc2c(c1)nnn2C(C)C,-1.7,.
CCOC(=O)c1sc2nc(CSc3nc4ccccc4c(=O)n3CCOC)[nH]c(=O)c2c1C,.,-14
O=C(O)/C=C/c1ccc(S(=O)(=O)Nc2cccnc2)cc1,.,-15
Cc1ccc(S(=O)(=O)/C=C2\NC(=O)CS2)cc1,.,9
O=C1CCCC/C1=C\Nc1ccc(Cl)cn1,0.6,18
CN1C(=O)C2C(C1=O)C1(C)C=CC2(C)O1 (stereo unspecified),.,5
c1csc(-c2cc3ccccn3c2)c1,.,-24
O=C(O)c1nn(CC(=O)N2CCCCCC2)c(=O)c2ccccc12,.,-8
CN(Cn1nc(-c2ccc3c(c2)OCO3)oc1=S)C1CCCCC1,.,2
Nc1nc(-c2ccc(Cl)s2)cs1,1.9,.
O=C1CC(SCc2ccc(Cl)cc2)C(=O)N1c1ccccc1 (stereo unspecified),-3.0,.
O=C(NCC1COC2(CCCC2)O1)C1CC1 (stereo unspecified),.,6
Cc1c(S(=O)(=O)c2ccc(Cl)cc2)csc1N,0.7,.
CN(C)C(=O)CSc1nnc(-c2ccncc2)n1C,17,1
Cc1cc(C)c2c(n1)sc1c(=O)n(/N=C/c3cccs3)cnc12,.,17
O=C(Nc1nc2c(ncn2C(CO)OC(CO)CO)c(=O)[nH]1)c1ccccc1 (stereo unspecified),.,6
COc1cc2c(cc1OC)n(CC(=O)NC1CCCC(C)C1C)n1c(C)cc(=O)nc21 (stereo unspecified),3.8,34
O=S1(=O)c2cccc3cccc(c23)N1Cc1ccccn1,-0.7,-9
O=c1[nH]c(SCc2ccccc2)nc2ccccc12,.,5
CSc1nnc(-c2ccccc2NC(=O)c2ccccc2)c(=O)[nH]1,2.1,20
COc1cc(/C=N\S(=O)(=O)c2cccs2)cc(Br)c1O,.,-16
Cc1[nH]nc(-c2ccc(O)cc2O)c1-c1nc2ccccc2s1,.,-19
CC1CCN(CN2C(=O)C3(OCCCO3)c3ccccc32)CC1,-1.5,3
O=C(Nc1ccc(F)cc1)c1cccc(OC(=S)Nc2cccc(Br)c2)c1,-0.2,21
COc1ccc(OCC(NC(=O)Cn2nc(C)c3ccccc3c2=O)C(C)C)cc1 (stereo unspecified),.,-26
CCn1c(O)c(N=O)n(CC)c1=S,0.1,7
S=C(Nc1ccccc1)N1c2ccccc2Sc2ccccc21,-0.2,.
CCCn1c(SCC(=O)c2cc(C)n(C)c2C)n[nH]c1=O,.,8
CCCN1C(=O)CCN(C(C)=O)c2ccccc21,-0.4,12
Cc1cc(=O)c2c(=O)oc3ccccc3c2o1,.,-1
CCOC(=O)c1c(CNC(=O)c2ccc(N3CCOCC3)nc2)c(C)n(C2CC2)c1C,.,7
CC(C)NC(=O)CSc1ccc2c(c1)OCCO2,.,-15
O=C(O)c1cc(NS(=O)(=O)c2ccc(Br)cc2)ccc1O,.,-17
CCn1c(C)cc2cc(N)ccc21,-0.8,-2
CCNc1nc(C(=O)O)nc(N2CCOCC2)n1,.,16

# Whole records as entered above. Screens in order: MgrA DNA FP	Sa helicase inh
# O=C(Nc1ccc(F)cc1)c1cccc(OC(=S)Nc2cccc(Br)c2)c1 across the screens: -0.2	21
# CCCn1c(SCC(=O)c2cc(C)n(C)c2C)n[nH]c1=O across the screens: .	8
# CC1CCN(CN2C(=O)C3(OCCCO3)c3ccccc32)CC1 across the screens: -1.5	3
# Cc1cc(=O)c2c(=O)oc3ccccc3c2o1 across the screens: .	-1
# CCn1c(O)c(N=O)n(CC)c1=S across the screens: 0.1	7
